Vaccinia stage: blocks a specific stage of Vaccinia orthopoxvirus infection; Vaccinia-infected cells, mCherry/Venus stage reporter fluorescence; active compounds read low; some inactives read as strong as hits; activity change (mCherry), % (test concentration not listed); 89,000 tested, 0.01% active;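 active = mCherry past -33% and 40 or more points under the early reporter, replicates agreeing; inconclusive = past -33% without that gap or agreement; tested in A549 cells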;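 note: scaled between vehicle wells and reference inhibitor wells; 23 nL library stock went into each well; one replicate is shown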
Vaccinia stage Venus: recorded beside Vaccinia stage, whose call it bears; activity change (Venus), %; measured here: Venus reporter, other viral stage;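 negative = less Venus signal; first of two replicates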
Starred values were filed as active, the others as inactive; ? = inconclusive; . = no result given. These rows are one share of the data; count on the stated rates, not on these rows.

SMILES	Vaccinia stage	Vaccinia stage Venus
C[C@@H]1CN([C@@H](C)CO)C(=O)c2cc(NS(=O)(=O)c3ccccc3)ccc2O[C@H]1CN(C)CC1CC1	21	10
Cc1noc(C)c1NC(=O)N(C)C[C@H]1Oc2c(NC(=O)C3CCCCC3)cccc2C(=O)N([C@@H](C)CO)C[C@H]1C	5	2
C[C@@H]1CCCCO[C@H](CN(C)C(=O)Nc2ccccc2)[C@@H](C)CN([C@H](C)CO)C(=O)c2cc(NC(=O)Nc3cccc4ccccc34)ccc2O1	10	2
COc1ccc(CN(C)C[C@@H]2Oc3ccc(NC(=O)CCN4CCOCC4)cc3CC(=O)N([C@@H](C)CO)C[C@@H]2C)cc1	-13	-6
C[C@@H]1CCCCO[C@H](CN(C)C(=O)c2ccccc2)[C@H](C)CN([C@@H](C)CO)C(=O)c2cc(NC(=O)Nc3ccccc3)ccc2O1	-9	-3
C[C@@H]1CN([C@H](C)CO)S(=O)(=O)c2ccc(C#CCN(C)C)cc2O[C@@H]1CN(C)C(=O)CN(C)C	17	4
C[C@@H]1CCCCO[C@H](CN(C)S(=O)(=O)c2ccc(F)cc2)[C@H](C)CN([C@@H](C)CO)C(=O)c2cc(NS(C)(=O)=O)ccc2O1	2	2
O=C(NCC[C@H]1CC[C@H](NC(=O)C2CCCC2)[C@@H](CO)O1)c1cnccn1	-11	1
CC(C)(O)C#Cc1ccc([C@@H]2[C@@H](CO)N3CCCCN(C(=O)c4ccncc4)C[C@@H]23)cc1	22	4
C[C@H](CO)N1C[C@H](C)[C@H](CN(C)S(=O)(=O)c2cccs2)Oc2c(NC(=O)Nc3ccc4c(c3)OCO4)cccc2C1=O	-6	-8
O=C(C[C@@H]1C=C[C@@H](NS(=O)(=O)c2ccccc2)[C@@H](CO)O1)N1CCC(Cc2ccccc2)CC1	-22	-15
C[C@H](CO)N1C[C@H](C)[C@@H](CN(C)Cc2ccc3c(c2)OCO3)Oc2ccc(NS(=O)(=O)c3ccc(Cl)cc3)cc2CC1=O	?	.
C[C@@H]1CN([C@@H](C)CO)C(=O)c2cc(NC(=O)CCC(F)(F)F)ccc2O[C@H]1CN(C)C(=O)NC1CCCCC1	4	3
C[C@@H]1CN([C@@H](C)CO)C(=O)c2cc(NC(=O)c3ccncc3)ccc2O[C@@H](C)CCCCO[C@H]1CN(C)C(=O)Nc1cccc2ccccc12	?	.
O=C(CN1CCOCC1)N[C@@H]1CC[C@H](CCNC(=O)C2CCCC2)O[C@@H]1CO	-4	-5
COc1cccc(C#Cc2ccc3c(c2)[C@H]2[C@H](CCN2S(=O)(=O)c2cccc(OC)c2)[C@@H](CO)N3)c1	-6	3
COc1ccc(CN(C)C[C@@H]2OCCCC[C@@H](C)Oc3ccc(NC(=O)Nc4ccc(OC)cc4)cc3C(=O)N([C@H](C)CO)C[C@H]2C)cc1	?	.
CCC(=O)N(C)C[C@@H]1Oc2cc(C#Cc3ccncc3)ccc2S(=O)(=O)N([C@H](C)CO)C[C@H]1C	-24	-1
Cc1noc(C)c1S(=O)(=O)Nc1ccc2c(c1)CC(=O)N([C@@H](C)CO)C[C@@H](C)[C@@H](CN(C)S(=O)(=O)c1cn(C)cn1)O2	20	5
C/C=C/c1ccc([C@H]2[C@@H](CO)N(C(=O)C3CCC3)[C@H]2CNC(=O)CN(C)C)cc1	0	10
O=C(c1cnccn1)N1CC[C@@H]2[C@@H](CO)Nc3ccc(-c4ccccc4)cc3[C@@H]21	17	-1
O=C(Cc1ccccn1)N[C@@H]1CC[C@H](CCn2cc(-c3cccnc3)nn2)O[C@H]1CO	15	9
COc1ccc(C#Cc2ccc([C@@H]3[C@H]4CN(C(=O)C5CCOCC5)CC(=O)N4[C@H]3CO)cc2)cc1	-34	-48
C[C@H](CO)N1C[C@H](C)[C@@H](CN(C)Cc2ccc(C(=O)O)cc2)OCCCC[C@H](C)Oc2ccc(NC(=O)CCC(F)(F)F)cc2C1=O	4	3
C[C@H]1CN([C@@H](C)CO)C(=O)c2cc(NC(=O)CCCCCC(=O)Nc3ccccc3N)ccc2O[C@H]1CN(C)C(=O)Nc1ccccc1	12	-6

Two of the compounds above, with two lines to a compound:
Each structure is followed by: Vaccinia stage	Vaccinia stage Venus
O=C(CN1CCOCC1)N[C@@H]1CC[C@H](CCNC(=O)C2CCCC2)O[C@@H]1CO
  -4	-5
O=C(c1cnccn1)N1CC[C@@H]2[C@@H](CO)Nc3ccc(-c4ccccc4)cc3[C@@H]21
  17	-1

The main list resumes, starting 3 compounds before the break.
SMILES	Vaccinia stage	Vaccinia stage Venus
COc1ccc(C#Cc2ccc([C@@H]3[C@H]4CN(C(=O)C5CCOCC5)CC(=O)N4[C@H]3CO)cc2)cc1	-34	-48
C[C@H](CO)N1C[C@H](C)[C@@H](CN(C)Cc2ccc(C(=O)O)cc2)OCCCC[C@H](C)Oc2ccc(NC(=O)CCC(F)(F)F)cc2C1=O	4	3
C[C@H]1CN([C@@H](C)CO)C(=O)c2cc(NC(=O)CCCCCC(=O)Nc3ccccc3N)ccc2O[C@H]1CN(C)C(=O)Nc1ccccc1	12	-6
C[C@H]1CN([C@@H](C)CO)C(=O)c2cccc(NC(=O)Nc3ccc(F)cc3)c2O[C@H]1CN(C)S(C)(=O)=O	0	7
N#C[C@@H]1[C@H](c2ccccc2C2=CCCCC2)[C@@H](CO)N1S(=O)(=O)c1ccccc1	15	9
Cc1ccc(S(=O)(=O)N[C@H]2CC[C@H](CC(=O)N3CCc4ccccc4C3)O[C@@H]2CO)cc1	-17	-7
C[C@@H]1CN([C@H](C)CO)C(=O)c2cc(N(C)C)ccc2O[C@H]1CN(C)C(=O)Nc1ccc(C(F)(F)F)cc1	1	-6
CO[C@@H]1CN(C)C(=O)c2cc(NC(=O)CC(F)(F)F)ccc2OC[C@H](C)N(C(=O)C2CCOCC2)C[C@@H]1C	-5	2
O=C(C1CCC1)N1CC2(C1)[C@H](c1ccccc1)[C@H](CO)N2CC1CCCC1	-1	-2
CCC(=O)N1CC2(CN(Cc3ccccc3Cl)C2)c2c([nH]c3cc(OC)ccc23)[C@H]1CO	?	.
CN(C)c1ccc2c(c1)[C@@H]1C[C@@H](CC(=O)NCC3CC3)O[C@@H](CO)[C@@H]1O2	-8	3
COCC#Cc1cnc2c(c1)C(=O)N([C@@H](C)CO)C[C@@H](C)[C@H](CN(C)S(=O)(=O)c1cn(C)cn1)O2	18	10
COc1ccc(S(=O)(=O)N(C)C[C@H]2OCCCC[C@H](C)Oc3ccc(NS(=O)(=O)c4cn(C)cn4)cc3C(=O)N([C@H](C)CO)C[C@@H]2C)cc1	26	-6
COc1cccc(S(=O)(=O)N2CCC3(CC2)CN(C(=O)Nc2cccc(F)c2)[C@H](CO)c2[nH]c4cc(OC)ccc4c23)c1	-18	-26
CN(C)C(=O)C[C@H]1CC[C@@H]2[C@H](COC[C@H](O)CN2C(=O)C2CCOCC2)O1	5	0
C[C@H]1CN([C@@H](C)CO)C(=O)c2cc(C#CC3CC3)cnc2O[C@H]1CN(C)C(=O)c1ccc(F)cc1	22	14
COc1ccc(S(=O)(=O)N(C)C[C@@H]2OCCCC[C@@H](C)Oc3ccc(NS(=O)(=O)c4cccs4)cc3C(=O)N([C@@H](C)CO)C[C@H]2C)cc1	?	.
C[C@@H]1CN([C@@H](C)CO)C(=O)Cc2cc(NS(=O)(=O)c3ccccc3)ccc2O[C@@H]1CN(C)C(=O)Nc1ccc(C(F)(F)F)cc1	-10	-2
C[C@H]1CN([C@@H](C)CO)C(=O)c2cc(NC(=O)Cn3cnnn3)ccc2O[C@H]1CN(C)Cc1ccc(Cl)c(Cl)c1	-11	-5
C[C@@H]1CN([C@@H](C)CO)C(=O)Cc2cc(NS(=O)(=O)c3ccc(F)cc3)ccc2O[C@H]1CN(C)C(=O)Nc1ccccc1	6	13
CC(=O)N1CCCCN2[C@H](CO)[C@@H](c3ccc(-c4cccc(C)c4)cc3)[C@H]2C1	-3	-10
O=C(NCC[C@@H]1CC[C@H](NC(=O)C2CCCCC2)[C@H](CO)O1)c1cc(Cl)cc(Cl)c1	-26	-28
CNC[C@H]1OCCCC[C@H](C)Oc2ccc(NC(=O)Cc3ccccc3)cc2C(=O)N([C@H](C)CO)C[C@@H]1C	-4	-2
COCC#Cc1cnc2c(c1)C(=O)N([C@H](C)CO)C[C@@H](C)[C@H](CN(C)C(=O)Nc1cccc(F)c1)O2	14	4
O=C(C[C@H]1C=C[C@@H](NS(=O)(=O)c2ccc(F)cc2)[C@H](CO)O1)NCCN1CCCCC1	3	3
O=C(C[C@@H]1CC[C@@H]2[C@H](COC[C@H](O)CN2C(=O)c2ccc(F)cc2)O1)NC1Cc2ccccc2C1	14	18
CC=Cc1ccc2n(c1=O)C[C@H]1[C@H](CO)[C@@H](C(=O)NC3CCCC3)N(C(=O)C3CCC3)[C@@H]21 (mixture of isomers)	9	2
C[C@H](CO)N1C[C@H](C)[C@@H](CN(C)C(=O)Nc2ccccc2)Oc2ccc(NC(=O)c3ccncc3)cc2CC1=O	35	27

Of the compounds above, 4 contain a Cl atom:
SMILES	Vaccinia stage	Vaccinia stage Venus
C[C@H](CO)N1C[C@H](C)[C@@H](CN(C)Cc2ccc3c(c2)OCO3)Oc2ccc(NS(=O)(=O)c3ccc(Cl)cc3)cc2CC1=O	?	.
CCC(=O)N1CC2(CN(Cc3ccccc3Cl)C2)c2c([nH]c3cc(OC)ccc23)[C@H]1CO	?	.
C[C@H]1CN([C@@H](C)CO)C(=O)c2cc(NC(=O)Cn3cnnn3)ccc2O[C@H]1CN(C)Cc1ccc(Cl)c(Cl)c1	-11	-5
O=C(NCC[C@@H]1CC[C@H](NC(=O)C2CCCCC2)[C@H](CO)O1)c1cc(Cl)cc(Cl)c1	-26	-28

Next structures:
SMILES	Vaccinia stage	Vaccinia stage Venus
Cc1ccc(S(=O)(=O)N(C)C[C@H]2Oc3ccc(NS(=O)(=O)c4ccccc4)cc3C(=O)N([C@@H](C)CO)C[C@@H]2C)cc1	7	-3
CC(C)NC(=O)N(C)C[C@H]1OCCCC[C@H](C)Oc2ccc(NC(=O)c3ccccc3)cc2C(=O)N([C@H](C)CO)C[C@H]1C	22	0
C[C@H]1CCCCO[C@H](CN(C)C(=O)C2CCCCC2)[C@@H](C)CN([C@@H](C)CO)C(=O)c2cc(NC(=O)Nc3ccc4c(c3)OCO4)ccc2O1	?	.
O=C(N[C@@H]1C=C[C@H](CC(=O)N2CCc3ccccc3C2)O[C@H]1CO)C1CC1	11	12
N#C[C@@H]1[C@@H](c2ccccc2-c2ccccc2)[C@H](CO)N1C(=O)Cc1ccncc1	5	2
COc1ccc(S(=O)(=O)Nc2ccc3c(c2)OC[C@@H](C)NC[C@H](C)[C@@H](OC)CN(C)C3=O)cc1	6	11
O=C(C[C@@H]1C[C@H]2c3cc(NC(=O)c4cccnc4)ccc3O[C@H]2[C@@H](CO)O1)NC1CCCC1	-1	-6
Cc1ccccc1S(=O)(=O)N1C[C@H](O)COC[C@H]2O[C@H](CC(=O)O)CC[C@@H]21	11	13
C[C@@H]1CN([C@@H](C)CO)C(=O)c2cc(/C=C/c3ccccc3)cnc2O[C@H]1CN(C)Cc1cncnc1	-11	-7
C/C=C/c1ccc2c(c1)O[C@@H](CN(C)Cc1cccc(F)c1)[C@@H](C)CN([C@H](C)CO)S2(=O)=O	?	.
Cc1cccc(S(=O)(=O)N2C[C@@H]3N[C@H](C2)C3c2ccc(-c3ccncc3)cc2)c1 (stereo partly specified)	?	8
C[C@@H]1CCCCO[C@@H](CN(C)S(=O)(=O)c2cccs2)[C@@H](C)CN([C@H](C)CO)C(=O)c2cc(NC(=O)Nc3ccc4c(c3)OCO4)ccc2O1	18	16
Cc1noc(C)c1S(=O)(=O)Nc1cccc2c1O[C@@H](CN(C)C)[C@@H](C)CN([C@H](C)CO)C2=O	14	4
C[C@@H]1CN([C@H](C)CO)C(=O)c2cc(NC(=O)c3ccncc3)ccc2O[C@H]1CN(C)C(=O)NC1CCCCC1	13	13
COCC#Cc1ccc([C@@H]2[C@H](CO)N3CCCCN(C(=O)Nc4cc(F)ccc4F)C[C@@H]23)cc1	-18	-23
C[C@@H]1CN([C@H](C)CO)C(=O)c2cccc(NC(=O)Nc3ccc(F)cc3)c2O[C@H]1CN(C)Cc1ccc(Oc2ccccc2)cc1	-19	-15
CN1C(=O)c2cc(NS(=O)(=O)c3ccccc3Cl)ccc2OC[C@H]2O[C@H](CC(=O)O)CC[C@@H]21	9	8
CC(C)NC(=O)Nc1ccc2c(c1)C(=O)N([C@@H](C)CO)C[C@H](C)[C@H](CN(C)S(=O)(=O)c1cn(C)cn1)OCCCC[C@@H](C)O2	15	11
N#C[C@H]1[C@@H](c2ccc(-c3cccnc3)cc2)[C@@H](CO)N1C(=O)Nc1ccc(F)cc1	?	.
CC(=O)N(C)C[C@@H]1Oc2cc(C#CC3(O)CCCC3)ccc2S(=O)(=O)N([C@H](C)CO)C[C@H]1C	8	0
CC(C)C#Cc1cnc2c(c1)C(=O)N([C@@H](C)CO)C[C@@H](C)[C@@H](CN(C)C(=O)CCN1CCCCC1)O2	-16	-3
C[C@H]1CN([C@@H](C)CO)C(=O)c2cc(-c3cccc(C(=O)N(C)C)c3)cnc2O[C@@H]1CN(C)S(=O)(=O)c1ccccc1	-12	-17
COCC(=O)N1[C@H](CO)[C@H]2c3ccccc3N(C(=O)Nc3ccccc3F)C[C@H]21	6	13
CCCN(C)C[C@H]1Oc2cc(C#CCOC)ccc2S(=O)(=O)N([C@@H](C)CO)C[C@H]1C	14	-1
O=C(N[C@@H]1C=C[C@@H](CC(=O)N2CCc3ccccc3C2)O[C@H]1CO)C1CCC1	1	-2
C[C@@H]1CN([C@H](C)CO)C(=O)c2cc(NC(=O)Nc3ccc4c(c3)OCO4)ccc2O[C@@H]1CN(C)Cc1ccc(C(=O)O)cc1	-5	-4
C[C@@H]1CCCCO[C@H](CN(C)Cc2ccc(C(=O)O)cc2)[C@H](C)CN([C@@H](C)CO)C(=O)c2cc(NS(C)(=O)=O)ccc2O1	15	3
CCCC(=O)Nc1ccc2c(c1)C(=O)N(C)C[C@H](OC)[C@H](C)CN(CCC)[C@@H](C)CO2	-3	-2

Source: PubChem BioAssay
